AID504770 – growth inhibitors of E. coli YBA685 in a screen for V. cholerae RctB (chromosome II replication) inhibitors; E. coli YBA685 rctB-dependent plasmid, OD600 growth, 3 h; hits give low values; z-score (no concentration beside the values); 0.27% of 130,000 active;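 active = z-score under -2 on both plates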;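 note: wells of about 30 µL received 100 nL stock; score is relative to mean and SD of the test wells; the first replicate is given; strong numbers were not always called active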
Ba CapD inh – blocks the Bacillus anthracis CapD enzyme; purified CapD enzyme, fluorescence intensity read-out; hits give low values; some hits fall short of the stated cut; z-score (no concentration beside the values); 0.23% of 140,000 active; AID 492967;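 active = z-score under -4 in either of two replicates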;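 note: stock transfer was 100 nL into about 40 µL; score is relative to mean and spread of the plate; one replicate is shown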
Starred values were filed as active, the others as inactive; i = inactive; . = not tested or not shown; & = joins results of further samples.

cpd	canonical_smiles	AID504770	Ba CapD inh
1	CC[N+]12CCC(CC1)C(C(=O)c1cccs1)C2 (centres undefined)	0.55	0.3
2	CCOC(=O)c1ccc(COC(=O)c2ccc(-c3nnc(-c4ccccc4)o3)cc2)o1	-0.7	2.9
3	COc1ccc(C=Nc2ccccc2Sc2c(C)n[nH]c2C)cc1	-0.9	-1.6
4	Cc1c(C(=O)O)sc2ccccc12	1.8	.
5	C=CCN1C=C/C(=C\C=C(/C#N)C(=O)Nc2ccccc2)c2ccccc21	.	0.095
6	COC(=O)c1nn(-c2cccc(C(F)(F)F)c2)c(=O)cc1Oc1ccccc1	.	0.56
7	CCCn1cc(SCC(=O)N2CCc3ccccc32)c2ccccc21	-0.25	-0.02
8	O=C(Cn1c(CC(=O)N2CCOCC2)nc2ccccc21)Nc1ccc2c(c1)OC(F)(F)O2	0.5	.
9	Cn1nc(C(C)(C)C)cc1C(=O)NCc1ccc2c(c1)CCO2	-0.15	0.59
10	O=C(Nc1ccc(Cl)cc1)OCc1cc(-c2ccc(Cl)c(Cl)c2)on1	.	-0.18
11	Cc1cc(OS(=O)(=O)CS(=O)(=O)Oc2ccc(Cl)c(C)c2)ccc1Cl	.	0.41
12	Cc1cc(N2CCCCC2)nc(-c2ccc(Br)cc2)n1	1.9	7.9
13	CCCP(=O)(CC(=O)O)c1ccccc1 (centres undefined)	-0.5	0.35
14	CNCCc1ccncc1	-0.65	.
15	O=S1(=O)C=CC(Nc2ccccc2)C1 (centres undefined)	2	0.09
16	CCC(=O)Nc1ccc(C2=NN(C)C(=NCc3ccccc3)SC2)cc1	2.5	.

Shown with each value named: entries from further up.
13. CCCP(=O)(CC(=O)O)c1ccccc1 (centres undefined)
  AID504770: -0.5
  Ba CapD inh: 0.35
12. Cc1cc(N2CCCCC2)nc(-c2ccc(Br)cc2)n1
  AID504770: 1.9
  Ba CapD inh: 7.9
16. CCC(=O)Nc1ccc(C2=NN(C)C(=NCc3ccccc3)SC2)cc1
  AID504770: 2.5
  Ba CapD inh: .
10. O=C(Nc1ccc(Cl)cc1)OCc1cc(-c2ccc(Cl)c(Cl)c2)on1
  AID504770: .
  Ba CapD inh: -0.18

New compounds follow.
cpd	canonical_smiles	AID504770	Ba CapD inh
17	O=C(Cc1ccccc1)Nc1cccc(-c2nc3ccccc3o2)c1	-0.65	0.12
18	CCc1c(C)sc(NC(=O)c2cc(-c3ccccc3)on2)c1C#N	3.6	17
19	O=C(CCSc1ccc(Cl)cc1)c1ccc(Cl)cc1	.	-0.36
20	Nc1nnc(SCc2c(-c3ccccc3)nnn2-c2ccc(F)cc2F)s1	3.1	0.62
21	O=C(O/N=C/c1ccc2c(c1)OCO2)C1CCCCC1	.	1.1
22	N#CC(C#N)=Cc1cn(-c2ccccc2)nc1C(=O)c1ccccc1	0.55	.
23	CCC(=O)Nc1ccc(-c2cn3cccc(C)c3n2)cc1	0.7	77
24	CCC1CN(C(=O)Nc2cccc(C)c2)c2ccccc2S1 (centres undefined)	-1.1	-1.8
25	O=C1c2ccccc2-c2nnc(-c3ccc(O)cc3)cc21	-1.1	-0.53
26	COc1ccc2nc(NC(=O)c3ccco3)sc2c1	0.45&-1.2	9.3
27	O=c1[nH]c(CN2CCN(S(=O)(=O)/C=C/c3ccccc3)CC2)nc2ccccc12	-0.6	.
28	O=C(O)CCNS(=O)(=O)c1ccccc1	-0.35	.
29	COc1cccc(NC(=O)c2ccc3c4c(onc24)-c2ccccc2C3=O)c1	.	0.055
30	CCCCC(=O)NCc1nc(-c2ccc(C(F)(F)F)cc2)no1	-0.25	-0.93
31	O=C(CCn1c(=O)sc2ccccc21)Nc1ccon1	-0.85	0.34
32	CCN(CC)c1cc(Nc2cccc(OC)c2)c([N+](=O)[O-])c2nonc12	.	0.18
33	CC(C)N(Cc1ccccc1)C(=S)NC(=O)C1CC1	-0.25	.
34	NC(=O)C1CCN(C(=O)c2cnn(-c3ccccc3)c2-n2cccc2)CC1	-0.25	0.12
35	COc1ccc(NC(=S)NCC(c2ccccc2)c2c[nH]c3ccccc23)cc1 (centres undefined)	0.2	-0.1
36	Cn1cnnc1-c1cccc(NC(=O)Nc2cccc3ccccc23)c1	0.35	15
37	CCc1ccccc1NC(=O)Cn1cnc2ccccc2c1=O	0.6	0.06
38	CC1=CC(=O)N(CCO)C1c1ccc(Cl)cc1 (centres undefined)	-0.9	.
39	COc1ccc(N2CCN(C(=O)OCc3ccccc3F)CC2C)cc1 (centres undefined)	.	0.24
40	O=C(NCC(=O)N1CCCC1)c1cccs1	-0.35	.

The list goes on; the last two above are carried over.
nr	structure	AID504770	Ba CapD inh
39	COc1ccc(N2CCN(C(=O)OCc3ccccc3F)CC2C)cc1 (centres undefined)	.	0.24
40	O=C(NCC(=O)N1CCCC1)c1cccs1	-0.35	.
41	COc1cc(/C=N/NC(=O)C(CCSC)NC(=O)c2ccc(C(F)(F)F)cc2)ccc1OCc1ccccc1 (centres undefined)	.	-0.65
42	CCC1CCCCN1C(=O)COc1ccc(F)cc1 (centres undefined)	-0.7	.
43	CCN1CCN(c2ccc(N=Cc3cccc(C)c3O)cc2)CC1	-0.65	.
44	Cc1ccc(CNC(=O)COC(=O)CN2C(=O)C3CC=CCC3C2=O)cc1 (centres undefined)	-0.45	.
45	COc1ccc(OC)c(Nc2nc(Nc3cc(OC)ccc3OC)nc(N3CCC(C)CC3)n2)c1	0.55	1.4
46	CCC(=O)Nc1ccc(S(=O)(=O)N2CCCC2)cc1	-0.15	-0.35
47	COc1ccc(C2NCCS2)cc1 (centres undefined)	-1.1	.
48	Fc1ccc(Nc2nc(Oc3ccc4c(c3)OCO4)nc(N3CCOCC3)n2)c(F)c1	.	-0.12
49	CC(=O)N(C1=NCCC(=O)S1)c1ccc(Cl)cc1	.	-3.5
50	Cc1ccc2oc(-c3ccc(NC(=O)C(F)(F)F)cc3)nc2c1	0.35	.
51	O=C1c2ccccc2C(=O)N1c1cccc(Br)c1	-0.4	-0.11
52	CC(C)n1nnc(-c2ccc(OCc3ccccc3F)cc2)n1	-0.4	0.3

Next section, starting with the last 3 of the part before.
nr	structure	AID504770	Ba CapD inh
50	Cc1ccc2oc(-c3ccc(NC(=O)C(F)(F)F)cc3)nc2c1	0.35	.
51	O=C1c2ccccc2C(=O)N1c1cccc(Br)c1	-0.4	-0.11
52	CC(C)n1nnc(-c2ccc(OCc3ccccc3F)cc2)n1	-0.4	0.3
53	CC1(C)CC(=O)C2=C(C1)c1c(ccc3ccccc13)NC2c1cc(Br)c(O)c(Br)c1 (centres undefined)	.	15
54	FC(F)(F)CNCc1ccccc1	0.75	.
55	CN1CCCN(C(=O)NC(C)(C)C)c2nc3ccccc3nc21	-1.2	.
56	COC(=O)c1c(NC(=O)c2c(-c3c(Cl)cccc3Cl)noc2C)sc2c1CCCC2	.	-0.55
57	COc1ccc(Oc2cc(F)nc(N)n2)cc1	1.8	-0.015
58	O=C(/C=C/c1ccc(F)cc1)NCCCn1ccnc1	.	-0.45
59	Cc1nnc(SCC(=O)Nc2nsc(-c3ccccc3)n2)s1	0.9	-1.1
60	N#C/C(=C(/O)CN1CCCN(c2ccc(C(F)(F)F)cn2)CC1)c1nc2ccccc2[nH]1	0.05	.
61	FC(F)(F)c1cc(C(F)(F)F)c2ccc(Nc3ccc(Cl)cc3)nc2n1	.	-0.65
62	Cc1ccc(CSc2nc3c(c(N4CC(C)OC(C)C4)n2)CCCC3)cc1 (centres undefined)	.	-0.19
63	COC(=O)CSc1nc2ccccc2n1-c1cccc(C)c1	0	.
64	CCOC(=O)c1ccc(NC(=O)c2ccc(Cl)cc2)cc1	-0.05	i
65	COc1ccc2ncc(O)cc2c1	-0.95	32
66	Cc1[nH]c2ccc(-c3nnc(SCc4ccc(C(=O)O)cc4)o3)cc2c1C	-0.3	.
67	Cc1ccn2c(C(=O)O)c(C)nc2c1	-0.3	2.5
68	CCCn1c(=O)c(CCc2ccccc2)nc2c1c(=O)[nH]c(=O)n2Cc1ccccc1	-0.15	.
69	N#Cc1ccccc1CSc1n[nH]c(=O)[nH]c1=O	-0.5	-0.02
70	O=C(CSc1nnc(-c2cccc(S(=O)(=O)N3CCOCC3)c2)o1)Nc1ncc(C(F)(F)F)cc1Cl	0.3	.
71	Cc1cc2ncn(CCC#N)c2cc1C	-0.15	-0.11
72	CCOC(=O)c1c(CSc2ccccc2)n(C)c2ccc(O)c(CN3CCN(C)CC3)c12	.	-0.26
73	CCCCNc1nc2ccccc2n1CC(=O)c1cc(C)n(C)c1C	-0.8	.
74	CCC(C)(C)n1nnnc1CN1CCC(NC(=O)COC)CC1	0.95	.
75	COC(=O)C1C2c3ccccc3O[C@]1(C)N=c1s/c(=C/c3ccc(OC)cc3)c(=O)n12 (some centres undefined)	.	-0.28
76	COC1(OC)N=C(N)C2(C#N)C3C=CC(CC3)C12C#N (centres undefined)	-0.45	-0.23
77	O=C(CCc1ccc2c(c1)OCO2)NNC(=O)c1ccco1	.	0.39
78	COc1ccc(C2Nc3ccccc3C(=O)N2c2ccc(F)cc2)cc1CN1CCOCC1 (centres undefined)	.	38
79	O=C(/C=C/c1ccccc1)Nc1c(-c2ccccc2)nc2ccccn12	.	-0.56
80	CN(C)C(=O)Cn1cc(S(=O)(=O)Cc2ccccc2)c2ccccc21	-0.4	.
81	N#CCCn1nc(-c2ccccc2)cc1NS(=O)(=O)c1ccc(Cl)c(Cl)c1	1.7	0.01
82	CCOc1ccsc1C(=O)NNC(=O)OCC1CCCCCC1	.	-1.3
83	NNC(=O)Cc1nc2ccccc2[nH]1	-1	3.3
84	Cc1nn(-c2ccccc2)c2sc(C(=O)OCc3cscn3)cc12	-1.2	.
85	CC(CCc1ccccc1)NC(=O)c1ccc(=O)[nH]c1 (centres undefined)	0.65	0.99
86	Cc1cc(C)cc(Oc2coc3cc(OCC(=O)OCc4ccccc4)ccc3c2=O)c1	.	-0.075
87	Cc1ccc(S(=O)(=O)NC(=O)NC2CCCCC2NC(=O)NS(=O)(=O)c2ccc(C)cc2)cc1 (centres undefined)	0.6	.
88	CCC(=O)N1N=C2CCCCC2C1(O)C(F)(F)F (centres undefined)	-0.55	.
89	O=C(Oc1ccc([N+](=O)[O-])cc1)c1cccnc1Oc1ccccc1	.	0.74
90	Cc1ccnc(N2CCCC(C(=O)NCCCc3ccccc3)C2)n1 (centres undefined)	-0.35	7.3
91	CCC(C(=O)Nc1cc(C(F)(F)F)cc(C(F)(F)F)c1)c1ccccc1 (centres undefined)	.	0.29
92	Cc1ccc(SCc2cn3ccccc3n2)cc1	2.1	0.4
93	Fc1ccc(CN(C(=S)Nc2ccccc2F)C2CCCCC2)cc1	-0.5	1.1
94	Cc1ccc(S(=O)(=O)n2nccc2-c2c(-c3ccc(Cl)cc3)noc2C)cc1	-0.05	0.5
95	CC1CCCCN1C(=O)C1c2ccccc2Oc2ccccc21 (centres undefined)	0.75	-0.91
96	CC12CN3CC(C)(CN(C1)C3C1CCCCC1)C2=O (centres undefined)	-0.8	-0.9
97	COc1ccc(OC)c(CNC(=O)Cc2cccs2)c1	.	0.14
98	COCCn1c(Cc2ccccc2)nnc1SCC(=O)c1ccc(O)cc1O	-0.35	.
99	O=C(Cn1c(=O)n(CC2CCCO2)c(=O)c2ccc(C(=O)NC3CCCCC3)cc21)Nc1ccc(F)cc1 (centres undefined)	-1	-0.12
100	Cn1c(=NC(=O)Cn2cnnn2)sc2ccccc21	0.05	.
101	CC(C)(C)C(=O)Nc1ccn([C@H]2C[C@H](O)[C@@H](COC(=O)C(C)(C)C)O2)c(=O)n1	-0.65	0.15
102	O=C(NCc1ccc(Cl)cc1)c1cc(-c2ccc(F)cc2)nc2ccccc12	-0.5	-0.86
103	COc1cccc(-c2nn(C)c3sc(C(=O)NC4CCCCC4)cc23)c1	-0.45	-0.28
104	CN1CCN(NC(=O)Cc2cccs2)CC1	0.55	1.1
105	O=C(COC(=O)c1ccccc1C(=O)c1ccc(Cl)cc1)Nc1ccccc1	0.1	0.74
106	COc1ccc(C2C3CCc4ccccc4C3=NN2C(=O)CN2CCOCC2)cc1 (centres undefined)	-0.5	0.85
107	COc1nc(Nc2ccc(C)cc2)nc(NC2CCCC2)n1	0	.
108	CCOc1ccc(NC(=O)N(Cc2cn(C)c3ccccc23)C2CCCCC2)cc1	-0.25	0.32
109	O=C(Nc1ccc(S(=O)(=O)C(F)F)cc1)C1CC(=O)N(Cc2ccccc2)C1 (centres undefined)	-0.7	.
110	COc1ccc(C(=O)C(C)OC(=O)c2ccc3ccccc3n2)cc1 (centres undefined)	1.1	0.29
111	CSCCC(N)c1nc2ccccc2n1Cc1ccccc1 (centres undefined)	0.8	0.58
112	Cc1ccc(N2C(=O)C3C4c5ccccc5C(CO)(c5ccccc54)C3C2=O)c(Br)c1 (centres undefined)	.	-0.34

Next section.
nr	structure	AID504770	Ba CapD inh
113	CCc1ccc(N2C(=O)CC(C(=O)OC)=C2C)cc1	0.65	0.63
114	CCOC(=O)C(N)Cc1c[nH]c2ccccc12 (centres undefined)	-1	0.22
115	O=C(NCCn1ccc2ccccc21)c1ccc(F)cc1	0.6	0.17
116	C#CCn1c(C2CC(=O)N(C)C2)nc2ccccc21 (centres undefined)	-0.15	.
117	Cc1ccc(S(=O)(=O)NCC(=O)N2CCCCC2)cc1	0.5	-0.42
118	CCOC(=O)CN1C(=N)N(c2nc(N(C)C)nc(N(C)C)n2)CC1=O	.	-0.77
119	CCN(CC)CCCNC(=O)c1nn2c(C(F)(F)F)cc(-c3ccc(OC)c(OC)c3)nc2c1Cl	.	-0.65

These rows are one share of the data, so the mix of outcomes need not match the whole.
